Screens from PubChem.
PMP22 txn = modulators of PMP22 gene transcription in S16 Schwann cells; actives 2% (n = 43,000); AID 1508649; Potency, µM (series often up to 57.5 µM), inactives show top-dose activity change, negative = inhibition, usual class: inhibitors; S16 Pmp22-F2sN Schwann cells (luciferase reporters placed in the Pmp22 gene), FLuc/NLuc coincidence luminescence, 24 h; active = clear falling dose curves in both reporters; inconclusive = both reporters move, but less clearly or upward; inactive = either reporter flat; the % is the NLuc reporter signal; note: % is set by controls: 0 for no effect and ±100 for the full control effect; some results filed as inactive show a strong effect at the top dose
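Transcriptional readout in edited S16(c9) cells: two luciferases reported from the Pmp22 locus, measured in turn after 24 h compound incubation.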
HTT prom inh = inhibitors of huntingtin promoter activity | HEK293 HTT promoter firefly luciferase reporter (activity 0% = vehicle and -100% = no light), 24 h | Potency, µM (series often up to 57.5 µM), without a hit: at the top dose activity change, negative = inhibition, hits mostly inhibitors | actives 0.93% (n = 48,000); active = well fitted inhibition curve with a large enough effect; inconclusive = small, poorly fitted or top-dose-only effect; inactive = no such curve, though single readings can be large or run the other way; note: nearly all actives have a fitted effect of over 50% in size
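Firefly luciferase readout (Dual-Glo, 10 min RT) after 24 h, 37 °C compound exposure (final up to 57.5 uM) of HEK293 reporter cells cultured 24 h beforehand; PTC124 at 50 uM final as control inhibitor; activity scaled vehicle 0%, zero RLU -100%.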
* marks the source's active call; other numbers are inactive results; [ ] = another dose, or the depositor's remark. Potency is the fitted concentration of half-maximal effect.

`CCCCCCc1cc2cc(-c3cn4c(n3)sc3cc(OC)ccc34)c(=O)oc2cc1O` gave PMP22 txn -26.6% and HTT prom inh -14.9%.
`CC(=O)Nc1ccc(Nc2nc3ccc(Cl)cc3n3cnnc23)cc1` gave PMP22 txn -0.7% and HTT prom inh -15.4%.
Screening Cc1ccc(-c2nn(C)c(=O)c3ccccc23)cc1S(=O)(=O)NCCCN(C)C returned PMP22 txn -9.2% and HTT prom inh 14.4%.
Screening Cc1ccc(N2CCN(C(=O)c3cc4cc5ccc(C)cc5nc4s3)CC2C)cc1 (stereo not given) returned PMP22 txn -1.5% and HTT prom inh 0.8%.
For CCC(CC)C(=O)Nc1nnc2n1CCS2 the results were PMP22 txn -9.1% and HTT prom inh -0.3%.
Screening Cc1cc(C)cc(NC(=O)CCS(=O)(=O)c2ccc3nc(C)sc3c2)c1 returned PMP22 txn -7.4% and HTT prom inh -11.6%.
`O=C(CN1CCCN(Cc2cccc(Cl)c2)S1(=O)=O)Nc1ccc2c(c1)OCCO2` gave PMP22 txn -13.4% and HTT prom inh inconclusive.
For Cc1ccc(C)c(NC(=O)Cn2c(=O)n(Cc3ccccc3)c(=O)c3oc4ccccc4c32)c1 the results were PMP22 txn 18.9µM* and HTT prom inh -12.5%.
Screening CC(C)c1ccc(OCc2cc(=O)n3c4c(sc3n2)CCCC4)cc1 returned PMP22 txn -12.3% and HTT prom inh -4.3%.
`CCc1ccc(NC(=O)Cn2nc3c4ccccc4n(Cc4ccccc4)cc-3c2=O)cc1` gave PMP22 txn inconclusive and HTT prom inh -7.7%.
For CSc1ncc2c(n1)-c1ccccc1N(Cc1ccc(Cl)cc1)S2(=O)=O the results were PMP22 txn -14.1% and HTT prom inh -12.0%.
For CCCCn1c(CNC(=O)C23CC4CC(CC(C4)C2)C3)nnc1SCC(=O)Nc1ccc(C)cc1 the results were PMP22 txn inconclusive and HTT prom inh -31.7%.
For Cc1cccc(NC(=O)CCc2c(C)nc3c(c(C)nn3C(C)(C)C)c2C)c1C the results were PMP22 txn inconclusive and HTT prom inh inconclusive.
`O=c1n(Cc2cccc(F)c2)c2ccccc2c2nc(-c3ccccc3)nn12` gave PMP22 txn inconclusive and HTT prom inh -7.1%.
`Cc1nc(-c2ccc(Cl)cc2)sc1CCNC(=O)c1ccco1` gave PMP22 txn inconclusive and HTT prom inh 10.5%.
CCc1ccc(-n2nc(CO)c(C(=O)NCc3ccccc3Cl)n2)cc1 was read as PMP22 txn -25.6% and HTT prom inh 0.1%.
For Cc1ccc(-n2nc3cc(C)c(NC(=O)c4ccc(-c5ccccc5)o4)cc3n2)cc1 the results were PMP22 txn 7.2% and HTT prom inh 30.5%[activator].
`Cc1ccccc1Cn1c(CN2CCN(c3cc(Cl)ccc3C)CC2)nc2c1c(=O)[nH]c(=O)n2C` gave PMP22 txn inconclusive and HTT prom inh 2.2%.
Screening COc1ccc(C)cc1NC(=O)N1CCCn2nc(C)cc21 returned PMP22 txn -4.4% and HTT prom inh -15.4%.
For Cc1cc(-c2nc3ncccc3o2)ccc1NC(=O)c1ccccc1Br the results were PMP22 txn -1.4% and HTT prom inh 6.9%.
Cc1cc(C)cc(NC(=O)CCc2c(C)nc3c4cccnc4nn3c2C)c1 was read as PMP22 txn -3.6% and HTT prom inh -15.9%.
`COc1cc(CN(C(=O)COc2ccc(C)c(C)c2)c2ccccn2)cc(OC)c1OC` gave PMP22 txn inconclusive and HTT prom inh inconclusive.
`CN1C(=O)Cc2cc(S(=O)(=O)NCCc3ccc(Cl)cc3)ccc21` gave PMP22 txn -15.3% and HTT prom inh 8.5%.
Screening O=C(CCS(=O)(=O)c1cc2c(cc1Cl)NC(=O)CO2)NCc1ccccc1Cl returned PMP22 txn -22.5% and HTT prom inh -5.2%.

In the list so far, 2 contain two or more sulfur atoms.
Screening Cc1cc(C)cc(NC(=O)CCS(=O)(=O)c2ccc3nc(C)sc3c2)c1 returned PMP22 txn -7.4% and HTT prom inh -11.6%.
For CSc1ncc2c(n1)-c1ccccc1N(Cc1ccc(Cl)cc1)S2(=O)=O the results were PMP22 txn -14.1% and HTT prom inh -12.0%.

Further results follow.
`Cc1cc(=O)n2nc(N(C)CC(=O)NCc3ccccc3C)sc2n1` gave PMP22 txn 6.4% and HTT prom inh -11.4%.
COc1cccc2cc(-c3nc(-c4ccc(C)cc4)c(C)s3)c(=O)oc12 was read as PMP22 txn 7.8% and HTT prom inh -4.8%.
`Fc1ccccc1-n1ncc2c1ncn1nc(-c3ccccc3Cl)nc21` gave PMP22 txn -9.5% and HTT prom inh 62.6%[activator].
Screening Cc1ccc(CNc2ncnc3c2nc2n3CCCC2)cc1 returned PMP22 txn -33.2% and HTT prom inh -10.0%.
Cc1cccc(CCNC(=O)C2CCC(CNS(=O)(=O)c3ccccc3)CC2)c1 (stereo not given) was read as PMP22 txn -32.2% and HTT prom inh 1.0%.
CC1CCc2nn(CC(=O)Nc3cccc(C(F)(F)F)c3)c(=O)cc2C1 (stereo not given) was read as PMP22 txn -22.8% and HTT prom inh -10.8%.
COCCCNC(=O)CSc1nc2c(sc3ccccc32)c(=O)n1CCCC(=O)NCCOC was read as PMP22 txn -9.2% and HTT prom inh -14.6%.
Cc1ccccc1CNC(=O)c1ccc(NC(=O)c2nsc3ccccc23)cc1 was read as PMP22 txn -1.6% and HTT prom inh inconclusive.
Cc1ccc(NC(=O)c2c(C)oc3ncn(CC(C)C)c(=O)c23)nc1 was read as PMP22 txn inconclusive and HTT prom inh -2.9%.
For COc1ccc(C(=O)N2CCCCC2CCN2CCOCC2)cc1 (stereo not given) the results were PMP22 txn 4.9% and HTT prom inh -7.4%.
CSc1ccc(CNC(=O)C2CCN(c3nnc(-n4cccc4CNc4ccc(C)cc4)s3)CC2)cc1 was read as PMP22 txn inconclusive and HTT prom inh inconclusive.
`O=C(C[C@@H]1CC=CCCC(=O)O[C@H](c2ccccc2)CNC1=O)NCc1ccc(Cl)cc1` gave HTT prom inh -11.7%.
`Cc1ccc(-c2cc(N)n(Cc3cccc(Cl)c3)n2)cc1` gave PMP22 txn -15.2% and HTT prom inh inconclusive.
For COc1ccc(CN2CCN(Cc3cc(=O)oc4cc(C)ccc34)CC2)c(OC)c1OC the results were PMP22 txn 16.8µM* and HTT prom inh -16.4%.
CCOc1ccc(NS(=O)(=O)c2cc3c(cc2Cl)NC(=O)CO3)cc1 was read as PMP22 txn -0.4% and HTT prom inh -7.0%.
For CCCN1CCN(CCCNC(=O)Cn2nc(C)n3c(cc4c(OC)cccc43)c2=O)CC1 the results were PMP22 txn -25.3% and HTT prom inh 1.8%.
For COc1cccc(CN2C(=O)C3(SCC(=O)N3c3cc(C)cc(C)c3)c3ccccc32)c1 (stereo not given) the results were PMP22 txn inconclusive and HTT prom inh inconclusive.
COc1ccc(C)cc1NC(=O)c1ccc2c(c1)CCN2S(=O)(=O)c1ccc(Cl)cc1 was read as PMP22 txn 9.5% and HTT prom inh inconclusive.
`CCN(C(=O)C1CCC(CNS(=O)(=O)c2cccc3nsnc23)CC1)c1ccccc1` (stereo not given) gave PMP22 txn inconclusive and HTT prom inh inconclusive.
`CCOC(=O)c1c(Oc2ccc(C(=O)OC)cc2)nnc(-c2ccccc2)c1-c1ccccc1` gave PMP22 txn -64.6% and HTT prom inh inconclusive.
Screening Cc1ccc(S(=O)(=O)c2cn(CC(=O)Nc3ccc(C)c(Cl)c3)c3ccc(C)cc3c2=O)cc1 returned PMP22 txn -1.6% and HTT prom inh -14.3%.
For COc1cccc(-c2ccc(-c3noc(-c4ccccc4Br)n3)c(OC)n2)c1 the results were PMP22 txn 18.1% and HTT prom inh -1.7%.
For Cc1sc2c(c1C)c(=O)n(Cc1ccccc1)c(=O)n2CC(=O)N(C)c1ccccc1 the results were PMP22 txn -87.7% and HTT prom inh -4.2%.
For CC(=O)Nc1ccc(S(=O)(=O)NCCc2cn3ccsc3n2)cc1 the results were PMP22 txn 16.0% and HTT prom inh -20.8%.
Screening COc1cc(CN2CCc3nc(N4CCN(c5ccccc5F)CC4)ncc3C2)ccc1OC(C)C returned PMP22 txn -30.5% and HTT prom inh inconclusive.
For CC1CCN(C(=O)C(C)Sc2nc(-c3ccccc3)cc(C(F)(F)F)n2)CC1 (stereo not given) the results were PMP22 txn inconclusive and HTT prom inh -26.9%.
Screening COc1cccc(Cn2c(CNS(=O)(=O)c3ccc4c(c3)CCCC4)nc3cccnc32)c1 returned PMP22 txn -13.4% and HTT prom inh -11.1%.
For COc1cc(NC(=O)CCCc2nnc3n(CC(C)C)c(=O)c4sccc4n23)cc(OC)c1 the results were PMP22 txn 0.6% and HTT prom inh -16.6%.
Screening O=C(C1CCC1)N1CCc2cc(S(=O)(=O)NCc3ccc(F)cc3)ccc21 returned PMP22 txn -7.2% and HTT prom inh -27.6%.
For CCOc1ccc(NC(=O)C(=O)NCc2ccco2)cc1 the results were PMP22 txn 4.6% and HTT prom inh -18.1%[11.5 µM].
For Cc1ccccc1S(=O)(=O)Cc1ccc(C(=O)NCCc2ccccc2)o1 the results were PMP22 txn -8.7% and HTT prom inh 13.2%.
COc1ccc(S(=O)(=O)NCC(c2ccco2)N2CCN(c3ccccc3F)CC2)cc1OC (stereo not given) was read as PMP22 txn -13.2% and HTT prom inh -17.7%.
Screening O=C(Nc1cccc(C(F)(F)F)c1)C1CCN(S(=O)(=O)c2cccs2)CC1 returned PMP22 txn inconclusive and HTT prom inh inconclusive.
O=C(Nc1nc2c(F)cc(F)cc2s1)c1ccc2c(c1)OCCO2 was read as PMP22 txn inconclusive and HTT prom inh 73.0%[activator].
Screening Cc1c(Cl)cccc1NC(=O)Cn1c(=O)n(Cc2nc(-c3ccccc3)no2)c(=O)c2cc3c(cc21)OCO3 returned PMP22 txn 24.5% and HTT prom inh -4.3%.
CC(C)c1cc(-c2nc(-c3cccc(Cl)c3)no2)n[nH]1 was read as PMP22 txn inconclusive and HTT prom inh 23.0%.
Screening COc1ccc(-c2cc(C)no2)cc1S(=O)(=O)NC(C)C returned PMP22 txn -6.2% and HTT prom inh -18.4%.
For Cc1ccc(NC(=O)CN2C(=O)CC(c3ccc(F)cc3)=Nc3ccccc32)cc1F the results were PMP22 txn inconclusive and HTT prom inh -9.1%.
Cc1ccc(Cn2c(SCc3ccc(C(=O)O)cc3)nc3cccnc32)cc1 was read as PMP22 txn 4.8% and HTT prom inh -7.1%.
`Cc1cc(C)c(NC(=O)Cn2c(SCC(=O)NCc3ccccc3)nc3ccccc32)c(C)c1` gave PMP22 txn inconclusive and HTT prom inh 0.0%.
Screening O=C(NCCCN1CCN(c2ccccc2F)CC1)c1sc2ncccc2c1-n1cccc1 returned PMP22 txn inconclusive and HTT prom inh -20.5%.
Screening Cc1ccc(-c2cn3c(n2)sc2cc(C(=O)N4CCCCC4)ccc23)cc1 returned PMP22 txn -35.5% and HTT prom inh -29.4%.
For CCOC(=O)c1c(C)[nH]c(C)c1S(=O)(=O)N1CCC(C(=O)N2CCN(c3cccc(C)c3C)CC2)CC1 the results were PMP22 txn inconclusive and HTT prom inh inconclusive.
`COc1ccc(C)cc1NC(=O)c1c2c(nc3ccccc13)C(=O)N(C1CCCCC1)C2` gave PMP22 txn inconclusive and HTT prom inh inconclusive.
Screening O=C(CSc1nnc(-c2ccccc2F)o1)Nc1cccc(C(F)(F)F)c1 returned PMP22 txn 5.3% and HTT prom inh 6.9%.
Screening Cn1c(SCc2ccc(F)cc2)nc2ccc(C(=O)NCc3ccc(F)cc3)cc21 returned PMP22 txn -7.0% and HTT prom inh 25.1µM*.
CC(C=CC1=C(C)CCCC1(C)C)=CC=CC(C)=CC(=O)O was read as HTT prom inh inconclusive.
Cc1ccccc1S(=O)Cc1ccc(C(=O)N2CCN(c3cccc(C)c3C)CC2)o1 (stereo not given) was read as PMP22 txn inconclusive and HTT prom inh inconclusive.

Of the compounds above, these contain bromine:
For Cc1cc(-c2nc3ncccc3o2)ccc1NC(=O)c1ccccc1Br the results were PMP22 txn -1.4% and HTT prom inh 6.9%.
For COc1cccc(-c2ccc(-c3noc(-c4ccccc4Br)n3)c(OC)n2)c1 the results were PMP22 txn 18.1% and HTT prom inh -1.7%.

Next part
Screening COc1ccc(OC)c(NC(=O)c2nc(SCc3ccccc3F)ncc2Cl)c1 returned PMP22 txn -28.4% and HTT prom inh -4.1%.
Screening CCOc1ccc(NC(=O)Cn2cc(C(=O)c3ccc(C)c(C)c3)c(=O)c3cc(OC)c(OC)cc32)cc1 returned PMP22 txn -1.2% and HTT prom inh -13.7%.
Screening Cc1nn(CCCC(=O)NCCc2ccc(Cl)cc2)c(=O)c2c1sc1ccccc12 returned PMP22 txn inconclusive and HTT prom inh -1.2%.
For COc1ccccc1/C=C/c1nc(C#N)c(N2CCN(c3ccccc3)CC2)o1 the results were PMP22 txn -5.1% and HTT prom inh -8.6%.
`COc1ccccc1N1CCN(S(=O)(=O)c2c(C)sc3ncn(CC(=O)Nc4cccc(Cl)c4)c(=O)c23)CC1` gave PMP22 txn inconclusive and HTT prom inh -9.3%.
`Cc1cccc(CSc2cn(CC(=O)N3CCOCC3)c3ccccc23)c1` gave PMP22 txn -28.4% and HTT prom inh 64.2%[activator].

No enrichment for hits. About 2.4% of those tested had a hit in this group.
